# Screening results from PubChem.
# miR-21 FLuc – qHTS Assay for Modulators of miRNAs and/orActivators of miR-21; Potency, µM (top dose mostly 38.3 µM), for the others: at the top dose reporter change, positive = more light; AID 2288, 2010; 340,000 tested, under 10 active; HeLa miR-21 FLuc reporter, luciferase, 48 h; active = well fitted rising curve with a large enough effect; inconclusive = small, poorly fitted or top-dose-only effect; inactive = no such curve, though single readings can be large or run the other way;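 also: % of control where 0% means no effect; miR-21 action dims this reporter so a rising signal means less miR-21 action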
#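 Compounds were titrated across several concentrations (up to approximately 40 uM) and incubated 48 hours with HeLa miR-21-FLuc reporter cells (miR-21 target sequence downstream of FLuc, endogenous miR-21). Readout was firefly luciferase luminescence after lytic detection reagent.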
# Rango complex inh – qHTS Assay for Inhibitors of Rango (Ran-regulated importin-beta cargo) - Importin beta complex formation; Importin subunit beta-1 (Homo sapiens), Q14974; Rango CFP/YFP FRET sensor + importin beta, 45 min; Potency, µM (top dose mostly 92.2 µM), for inactives: top-dose inhibition of complex formation; 0.031% of 340,000 active; active = rising FRET ratio curve, often small or poorly fitted; inconclusive = mostly compound fluorescence or quenching in the first reads; inactive = flat curves in all reads;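 also: potency is read from the fitted curve at half-maximal effect; 0% = DMSO wells and 100% = buffer wells lacking importin beta; nearly all actives have a fitted effect of over 15% in size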
# Target sequence (Q14974 whole entry, looked up): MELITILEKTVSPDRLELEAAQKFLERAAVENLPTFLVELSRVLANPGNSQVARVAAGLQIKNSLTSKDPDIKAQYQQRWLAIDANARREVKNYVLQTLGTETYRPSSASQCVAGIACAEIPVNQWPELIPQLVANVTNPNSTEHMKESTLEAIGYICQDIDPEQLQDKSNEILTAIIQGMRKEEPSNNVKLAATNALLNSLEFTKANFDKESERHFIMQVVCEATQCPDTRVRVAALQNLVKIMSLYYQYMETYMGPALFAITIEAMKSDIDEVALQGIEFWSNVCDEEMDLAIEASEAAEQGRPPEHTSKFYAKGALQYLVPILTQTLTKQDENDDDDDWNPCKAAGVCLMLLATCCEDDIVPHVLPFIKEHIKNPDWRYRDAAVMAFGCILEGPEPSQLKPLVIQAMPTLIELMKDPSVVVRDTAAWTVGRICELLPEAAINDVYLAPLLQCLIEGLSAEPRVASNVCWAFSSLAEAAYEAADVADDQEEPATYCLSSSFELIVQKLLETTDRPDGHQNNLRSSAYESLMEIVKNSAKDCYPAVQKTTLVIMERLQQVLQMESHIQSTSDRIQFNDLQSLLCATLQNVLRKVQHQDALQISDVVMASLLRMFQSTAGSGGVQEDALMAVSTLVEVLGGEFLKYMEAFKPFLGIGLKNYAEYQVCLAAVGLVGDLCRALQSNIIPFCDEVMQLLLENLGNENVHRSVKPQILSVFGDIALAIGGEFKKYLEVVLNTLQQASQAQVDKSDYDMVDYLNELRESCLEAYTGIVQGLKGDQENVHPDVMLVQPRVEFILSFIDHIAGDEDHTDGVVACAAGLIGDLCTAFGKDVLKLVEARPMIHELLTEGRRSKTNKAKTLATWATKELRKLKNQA
#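 FRET biosensor (snurportin 1 IBB flanked by EYFP and cerulean), 50 nM, with compound 5 min, then 0.125 microM importin beta in PBS, 1 mM DTT, 0.02% Tween-20, 0.1% BSA. CFP/YFP ratio read after 45 min at room temperature; pre-read flags interference.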
# GLA inh pH 4.5 – qHTS Assay for Inhibitors of Human alpha-Galactosidase at pH 4.5; Alpha-galactosidase A (Homo sapiens), P06280; purified enzyme, 4-MU-alpha-Gal fluorescence, pH 4.5; activity change, negative = inhibition, % at 105 µM; 230,000 tested, under 10 active; inconclusive = small, poorly fitted or top-dose-only inhibition, or a rising curve; inactive = flat fitted curve, though single readings scatter; no compound was filed as active;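 also: 0% = full activity with enzyme and -100% = basal without enzyme; dose as in the result columns while the protocol names 77 µM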
# Rango dissoc inh – qHTS Assay for Inhibitors of RanGTP induced Rango (Ran-regulated importin-beta cargo) - Importin beta complex dissociation; Snurportin-1 (Homo sapiens) + GTP-binding nuclear protein Ran (Homo sapiens) + Importin …; Biochemical FRET Rango-importin beta, RanGTP-induced dissociation; Potency, µM (highest dose often 46.1 µM), inactives show at the highest dose activity change, negative = inhibition; 0.071% of 340,000 active; active means falling FRET ratio curve, often poorly fitted, with flat reads before Ran was added; inconclusive means other falling curves, or compound fluorescence or quenching; inactive means flat or rising ratio curve;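 also: potency is read from the fitted curve at half-maximal effect; % of control where 0% means no effect; nearly all actives have a fitted effect of over 45% in size; -100% = wells without RanGTP and RCC1; the record marks most hits as doubtful in a second field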
#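 FRET read at 45 min, room temperature: inhibitors block the CFP/YFP signal rise when RanGTP (0.6 uM Ran, 2 mM GTP, 0.2 uM RCC1) frees Rango (0.1 uM) from importin beta (0.25 uM). Pre-read after 5 min compound exposure flags interference.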
# * marks the source's active call; other numbers are inactive results; ? = inconclusive; . = no result given. These rows are one share of the data; count on the stated rates, not on these rows.
SMILES,miR-21 FLuc,Rango complex inh,GLA inh pH 4.5,Rango dissoc inh
NC(=O)CCC(NC(=S)Nc1ccccc1)C(=O)O (centres undefined),-5%,-1.4%,7,0%
Cc1nc(NC(=O)COc2ccccc2)sc1C(=O)Nc1cccc(Cl)c1,-28%,-1.4%,2,-3%
COc1ccccc1/C=C/C(=O)OCCCN(C)C,-1%,-0.4%,-6,-11%
Cc1cccc(CCNC(=O)CCc2nnc(CCc3ccccc3)o2)n1,-13%,-0.7%,?,0%
O=C(COc1ccc2c(c1)OCO2)NCc1cccs1,.,2.4%,.,0%
COc1ccc(CNc2nc(SCc3cc(=O)n4cc(Cl)ccc4n3)nc3ccccc23)cc1,-3%,-0.1%,-2,-6%
CC1CC(C)CN(S(=O)(=O)c2ccc3c(c2)CCN3C(=O)CCC(=O)O)C1 (centres undefined),1%,0.6%,.,17%
CCN(CC)S(=O)(=O)c1ccc(Cl)c(NC(=O)COC(=O)C2CCCCC2)c1,.,1.5%,.,28%
O=C(COC(=O)COc1ccccc1)Nc1ccccc1OC(F)F,0%,3.4%,-15,-3%
O=C(O)CCC(=O)N1CCc2c([nH]c3ccccc23)C1C(F)(F)F (centres undefined),0%,5.0%,.,0%
CCOC(=O)c1[nH]c2cc3c(cc2c1NC(=O)CN1CCC(C)CC1)OCO3,1%,0.5%,-19,-14%
Cc1cc(C)nc(SC2CCCCC2O)n1 (centres undefined),-8%,-0.1%,-4,-12%
N=c1sccn1CC(=O)Nc1cc(S(=O)(=O)N2CCCC2)ccc1Cl,-1%,-1.8%,?,-6%
COCCN(C(=O)COC(=O)Cc1cccc(OC)c1)c1c(N)n(CC(C)C)c(=O)[nH]c1=O,.,0.0%,.,-2%
N/C(CSc1ccc(Cl)cc1)=N\NC(=O)c1ccncc1,7%,5.8%,6,-6%
O=[N+]([O-])c1cccc(CSc2nnc(Cc3ccccc3)n2-c2ccc(F)cc2)c1,3%,-2.6%,-2,1%
Nc1cc(=O)[nH]c(SCc2ccc(Cl)cc2)n1,-9%,0.0%,0,7%
C[C@@]12C(=O)Nc3ccc(Cl)cc3C(=O)N1[C@H]1c3cc(Br)ccc3OC[C@@H]1[C@@H]2c1ccccc1,.,-3.4%,.,-27%
O=C(CNC(=O)c1ccccc1Br)NCC(c1ccco1)N1CCCCC1 (centres undefined),.,2.3%,.,2%
Fc1ccccc1COc1ccc(C(=S)N2CCCC2)cc1,2%,-6.7%,.,-20%
CC(=O)NNC(=O)c1nc(-c2ccccc2)c(C)o1,-1%,-1.7%,-3,1%
O=C(O)c1ccccc1C(=O)Nc1cc(C(F)(F)F)ccc1N1CCCC1,-1%,-1.1%,.,17%
CC(C)(O)C(=O)NN(C(=O)c1ccccc1)c1ccc2ccccc2c1,-13%,1.0%,7,-15%
CCn1c(=O)c(C(=O)Nc2ncccc2C)c(O)c2ccccc21,14%,1.8%,9,23%
CCCNC(=O)Cn1nc([N+](=O)[O-])c([N+](=O)[O-])c1C,0%,-7.4%,2,-9%
# Remaining list, next part
SMILES,miR-21 FLuc,Rango complex inh,GLA inh pH 4.5,Rango dissoc inh
COc1ccc(S(=O)(=O)N(C)c2ccc(C(=O)Nc3cccnc3)cc2)cc1,16%,0.2%,.,-5%
O=C(OCCOc1cccc(Cl)c1)c1cc(S(=O)(=O)N2CCOCC2)ccc1F,.,2.3%,.,7%
COCCCNC(=O)C[C@H]1C[C@H](C(=O)N2CCCCC2)[C@@]2(C)c3[nH]c4ccc(Cl)cc4c3CCN2C1=O,.,-2.8%,.,-7%
COc1ccc([N+](=O)[O-])cc1-c1[nH]c(-c2ccc(C(=O)O)cc2)nc1-c1ccccc1,0%,1.4%,.,-6%
COc1ccc(CCNC(=O)Cn2cnc3c(cnn3-c3ccccc3Cl)c2=O)cc1OC,2%,-2.6%,-1,-12%
c1ccc(-c2cc3c(N4CCCC4)ncnc3s2)cc1,-13%,3.1%,15,-4%
Cc1ccc(NS(=O)(=O)c2ccc(NC(=O)c3cccc(NC(=O)C(C)C)c3)cc2)cc1,21%,-1.8%,-5,2%
COc1ccc(NS(=O)(=O)c2cccc(C(=O)N/N=C(/C)c3ccc(-n4ccnc4)cc3)c2)cc1,.,0.3%,.,-5%
CCN=C1SC(CC(=O)NCCc2ccc(OC)cc2)C(=O)N1CC (centres undefined),-1%,3.6%,-12,-5%
Nn1cnc2scc(-c3cccs3)c2c1=O,0%,1.4%,5,20%
CCOC(=O)c1ccc(NC(=O)C2=C(C)Nc3nc(CCCO)nn3C2c2ccc(OC)cc2)cc1 (centres undefined),-30%,2.9%,-1,13%
CC(=O)Oc1c(C)cc(O)c2ccccc12,15%,.,-1,.
COc1ccc(C2=NOC(C(=O)Nc3cc(C)on3)C2)cc1 (centres undefined),-1%,0.1%,0,16%
CC(C)CN1CCC(=O)N([C@H](COc2ccccc2)c2ccccc2)CC1,4%,-6.3%,.,-6%
Cc1nc(C)c(CC(=O)N/N=C/c2ccc(O)cc2)c(=O)[nH]1,-1%,4.0%,-5,-5%
Cc1ccc(Cn2nnc3c(=O)[nH]c(C4CCN(C(=O)Cc5cccs5)CC4)nc32)cc1,-14%,-4.0%,-3,0%
COC(=O)C(NC(=O)c1ccco1)(Nc1ccc(Br)cn1)C(F)(F)F (centres undefined),-10%,0.2%,0,-3%
COc1cccc2[nH]c3c(N4CC(C)CC(C)C4)ncnc3c12 (centres undefined),-12%,.,-7,.
CC(=O)c1ccc(NC(=O)[C@@H]2CCCN2C2=NS(=O)(=O)c3ccccc32)cc1,.,0.0%,.,-3%
CN(Cc1ccco1)c1ncnc2ccc(-c3ccc4c(ccn4C)c3)cc12,.,3.4%,.,-4%
O=C(Cc1ccccc1)NC(=S)Nc1ccc2oc(-c3ccccc3F)nc2c1,-37%,-0.6%,-4,0%
O=C(C1CC(=O)N(c2ccccc2)C1)N1CCC(c2nc3ccccc3[nH]2)CC1 (centres undefined),.,-3.4%,.,-12%
CCCOP(=O)(c1ccc(N(C)C)cc1)C(O)c1ccc(N(C)C)cc1 (centres undefined),-2%,2.5%,.,1%
Cc1ccc(S(=O)(=O)Cn2nnnc2C(C)N2CCN(C(=O)c3ccco3)CC2)cc1 (centres undefined),2%,0.0%,-5,1%
CCCCCOC(=O)Nc1nnc(CCCCC)s1,-7%,-1.2%,5,-11%

# Entries above with bromine (3):
SMILES,miR-21 FLuc,Rango complex inh,GLA inh pH 4.5,Rango dissoc inh
C[C@@]12C(=O)Nc3ccc(Cl)cc3C(=O)N1[C@H]1c3cc(Br)ccc3OC[C@@H]1[C@@H]2c1ccccc1,.,-3.4%,.,-27%
O=C(CNC(=O)c1ccccc1Br)NCC(c1ccco1)N1CCCCC1 (centres undefined),.,2.3%,.,2%
COC(=O)C(NC(=O)c1ccco1)(Nc1ccc(Br)cn1)C(F)(F)F (centres undefined),-10%,0.2%,0,-3%

# Next section.
SMILES,miR-21 FLuc,Rango complex inh,GLA inh pH 4.5,Rango dissoc inh
Cc1[nH]c(=O)[nH]c(=O)c1CSCC(=O)OCC(=O)Nc1ccccn1,2%,-0.1%,1,7%
COCc1nnc(NC(=O)CC(C)C)s1,0%,-1.5%,3,1%
COc1ccc2[nH]c(C(=O)N3CCN(Cc4ccccc4)CC3)cc2c1OC,-10%,6.0%,.,-5%
O=C(NCc1ccccc1)C(c1ccco1)N(C(=O)c1cnccn1)c1ccc(F)cc1 (centres undefined),3%,1.1%,10,-1%
NC(=O)C(CC(=O)O)NC(=O)[C@@H]1CCOc2c(I)cc([N+](=O)[O-])cc2C(=O)N[C@@H](CO)C(=O)N[C@@H](Cc2ccc(O)cc2)C(=O)N1 (some centres undefined),1%,-0.7%,-3,-6%
COc1cc(C2/C(=C(/O)c3ccc(F)cc3)C(=O)C(=O)N2CCCC(=O)O)ccc1O (centres undefined),0%,5.0%,0,-6%
CCC(=O)Nc1cccc(-c2nc3ccccc3o2)c1,-32%,1.4%,-4,3%
CCS(=O)(=O)C1=NN2C(=N)/C(=C\c3ccc(SCc4ccco4)o3)C(=O)N=C2S1,-13%,?,-4,?
COc1ccc2c(c1)CC(N1CCN(C)CC1)c1cc(OC)ccc1S2 (centres undefined),.,-1.1%,.,19%
O=C(c1ccc([N+](=O)[O-])cc1)N(c1ccccn1)c1ccccn1,-2%,-2.8%,3,2%
CN(Cc1ccccc1F)C(=O)CNC(=O)Cc1cccc2ccccc12,-9%,?,.,-6%
COc1cccc(CC(NC(C)=O)C(=O)NC2CCN(c3c4c(nc5ncnn35)CCC4)CC2)c1OC (centres undefined),-5%,.,13,.
Cc1ccccc1CSc1nc2n(n1)C(c1cccs1)C1=C(CCCC1=O)N2 (centres undefined),11%,2.3%,2,19%
N#C/C(=C/c1cn(-c2ccccc2)nc1-c1cccc(S(=O)(=O)N2CCOCC2)c1)C(=O)NCc1ccco1,-2%,1.7%,10,7%
CCCN1CCN(CCCNC(=O)c2ccc3nc(N4CCC(C)CC4)sc3c2)CC1,-47%,3.9%,.,4%
CCOCCCNC(=O)c1cn(C)c2ccc(S(=O)(=O)N3CCCCC3)cc2c1=O,-2%,1.4%,.,6%
NC(=O)C1=C[C@@H](c2csc3ccccc23)C[C@@H](OCc2ccc(CO)cc2)O1,7%,-0.4%,3,2%
O=C(CCCCCN1C(=O)c2ccccc2C1=O)Nc1ccc(F)cc1,-5%,1.2%,-5,11%
CCc1c(O)c(-c2ccccc2)c(=O)n(-c2ccccn2)c1-c1ccccc1,6%,?,4,-18%
O=C(CN(Cc1ccccc1)S(=O)(=O)c1ccc(F)cc1)NCc1cccnc1,5%,-0.1%,.,13%
Cc1cc(C)nc(SCc2csc(N)n2)n1,-33%,1.4%,-3,12%
NS(=O)(=O)c1ccc(CCNC(=O)CNC(=O)c2ccc(Br)o2)cc1,.,5.4%,.,19%
Cc1cc(C)c(S(=O)(=O)NCc2ccccn2)c(C)c1,3%,0.1%,.,-11%
C=CC[C@H](CC(=O)OC(C)(C)C)C(=O)OC[C@H]1CCCN1C(=O)[C@H](CC=C)CC(=O)NCCO,.,-3.4%,.,-1%
Cc1ccc2c(c1)C(=C(C#N)C#N)CCN2,.,?,.,?

# An excerpt from above, limited to GLA inh pH 4.5 and Rango complex inh:
Molecule	GLA inh pH 4.5	Rango complex inh
CCOC(=O)c1ccc(NC(=O)C2=C(C)Nc3nc(CCCO)nn3C2c2ccc(OC)cc2)cc1 (centres undefined)	-1	2.9%
CC(=O)Oc1c(C)cc(O)c2ccccc12	-1	.
COc1ccc(C2=NOC(C(=O)Nc3cc(C)on3)C2)cc1 (centres undefined)	0	0.1%
CC(C)CN1CCC(=O)N([C@H](COc2ccccc2)c2ccccc2)CC1	.	-6.3%

# More records follow:
SMILES,miR-21 FLuc,Rango complex inh,GLA inh pH 4.5,Rango dissoc inh
c1ccc(-c2cnnn2-c2ccccc2)cc1,-7%,-4.1%,.,15%
Cc1ccc(S(=O)(=O)N2[C@@H](c3ccccc3)C(C(=O)O)=CC[C@H]2c2cccc(C)c2)cc1,.,-2.3%,.,-18%
COC(=O)CSCC(=O)Nc1cc2c(cc1C(C)=O)OCO2,-5%,0.4%,-13,0%
CC(C)N(Cc1nc(-c2ccccc2)no1)C(=O)c1ccc(Cl)cc1,28%,2.6%,-5,0%
O=C(Nc1ccccc1)Nc1ccc(Cl)c(S(=O)(=O)N2CCOCC2)c1,21%,0.8%,-5,1%
CCN(C(=O)COC(=O)c1cc(-c2ccc(C)o2)nc2ccccc12)C1CCS(=O)(=O)C1 (centres undefined),-6%,?,8,?
CCC1=NN2C(=N)/C(=C\c3ccc(OCCOc4ccc(NC(C)=O)cc4)cc3)C(=O)N=C2S1,-4%,-3.3%,.,-1%
COc1cccc2c1nc(C)c1cc(C)oc12,-44%,-1.1%,-2,-1%
O=C(O)c1ccccc1C(=O)N1CCN(c2ccccc2)CC1,-1%,1.2%,-1,8%
COc1cc([N+](=O)[O-])ccc1NC(=O)CSc1n[nH]c(C(C)C)n1,9%,0.1%,3,-2%
COc1ccc(C(=O)Nc2oc(-c3ccccc3)c(-c3ccccc3)c2C#N)cc1,4%,-2.3%,3,1%
